HIV TAR-Tat: TAR RNA-Tat peptide displacers, HIV-1, primary screen, biochemical, FRET, FAM/TAMRA-labeled Tat; z-score (test concentration not listed); AID 1259389, 2018; 100,000 tested, 0.6% active; HIV-1 TAR RNA, Tat peptide displacement FRET; active compounds read high;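 note: score is relative to mean and SD of negative controls; some compounds called inactive have numbers as strong as hits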
CDC25B CDK2 inh: primary biochemical HTRF screen for blockers of M-phase inducer phosphatase 2 binding to CDK2/cyclin A; P30305+P24941; HTRF CDC25B-CDK2/CyclinA binding, anti-His/anti-Flag; active compounds read high; z-score (concentration not given with the values); 94,000 tested, 0.72% active; AID 1259370, 2018;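 note: score is relative to mean and SD of negative controls; strong numbers were not always called active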
* marks the source's active call; other numbers are inactive results; . = no result given.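 Rule for the calls: active = z-score from 3 up in half or more of its runs; inactive = the rest.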

No.	structure	HIV TAR-Tat	CDC25B CDK2 inh
1	CCCCCN(CCS(=O)(=O)N1CCNCC1)S(=O)(=O)c1ccc(Cl)cc1	2.2	.
2	O=C(Nc1ccccc1C(=O)NC1CCSC1)c1cccc(Cl)c1 (stereo not drawn)	.	-2.1
3	O=C(c1ccccc1)N(Cc1ccco1)C1CCS(=O)(=O)C1 (stereo not drawn)	0.73	-0.6
4	Cn1nc(C(=O)Nc2ccc(Cl)cn2)c2c1-c1ccccc1OC2	1.7	-1.6
5	Fc1ccc(-c2noc3ncnc(N4CCN(c5ccccn5)CC4)c23)cc1	-0.85	.
6	Cc1ccc(S(=O)(=O)Nc2ccc3c(c2)oc(=O)n3C)cc1	1.2	-1.8
7	CCOC(=O)C1=C(C)NC2=C(C(=O)CCC2)C1c1ccc2c(c1)OCO2 (stereo not drawn)	0.77	-0.47
8	COc1cc(NC(=O)c2nccnc2CO)cc(OC)c1	-1.9	-0.59
9	Nc1nc(-c2ccc(Cl)cc2)cc(C(F)(F)F)n1	.	-0.29
10	CCOc1ccc2nc(-n3nc(C)c4c3NC(=O)CC4c3ccc(C)s3)sc2c1 (stereo not drawn)	0.73	.
11	COCCCNC(=O)NC1COc2ccc(OC)cc2C1 (stereo not drawn)	1.4	.
12	O=C(Oc1cc(O)cc2c1C[C@@H](OC(=O)c1cc(O)c(O)c(O)c1)[C@@H](c1cc(O)c(O)c(O)c1)O2)c1cc(O)c(O)c(O)c1	31*	.
13	N#Cc1ccc(N2CCOCC2)c([N+](=O)[O-])c1	.	0.23
14	Cc1cc(N2CCC(C)CC2)n2nc(-c3ccccc3C)nc2n1	0.4	0.96
15	O=C(NCC(c1cccs1)S(=O)(=O)c1ccc(Cl)cc1)C(=O)NC1CC1 (stereo not drawn)	1.2	.
16	CN(CCNC(=O)C1CCN(c2nnc(N3CCCCC3=O)s2)CC1)C1CCCCC1	1.2	.
17	Cc1ccc(-n2ncc3c(NCCC(C)C)ncnc32)cc1Cl	0.88	.
18	CCOC(=O)C1(C(F)(F)F)N=C(N2CCOCC2)Oc2c1c(C)nn2-c1ccccc1 (stereo not drawn)	-0.64	-1.4
19	CC(C)NC(=O)C1=Cc2cc(Br)ccc2OC1	0.89	.
20	Cc1cc(-n2sc(Cl)c(C)c2=O)ccc1Cl	.	-1.5
21	O=C(Nc1cccc(Br)c1)N1CCN2CCCCC2C1 (stereo not drawn)	1.6	.
22	Cc1cc(NCCC(C)C)n2ncnc2n1	1.5	-1.4
23	COc1ccc(-c2cc(OC(=O)c3ccc(Cl)cc3)c3c(C)oc(C)c3c(=O)c2)cc1OC	-3.5	-1.2
24	Cc1ccc(C(=O)NC(C)c2nc(-c3ccc(C(C)(C)C)cc3)no2)cc1 (stereo not drawn)	0.4	-1.6
25	Cc1ccc(CNS(=O)(=O)c2ccc3c(c2)NC(=O)C(C)S3)cc1 (stereo not drawn)	1.6	.
26	COc1cc(/C=C/C(=O)/C=C(O)/C=C/c2ccc(O)c(OC)c2)ccc1O	1.4	.
27	Clc1ccc(-c2nnc3n2N=C(c2c[nH]c4ccccc24)CS3)cc1	-5.5	4
28	O=c1[nH]c(SCc2ccc(F)cc2)nc2c1CCC2	1.6	-1.3
29	CCc1cc(=O)oc2cc3occ(-c4ccc(Br)cc4)c3cc12	.	-1.1
30	CCOc1cc(C)c(Cl)cc1S(=O)(=O)n1cc(C)nc1CC	-0.19	0.19
31	CCOc1ccc(-c2noc(CSc3nnc(C)n3-c3cccc(C)c3)n2)cc1	2.2	0.22
32	CCCN1CCN(C(=O)C(=O)Nc2ccc3nc4n(c(=O)c3c2)CCCCC4)CC1	.	-2.4
33	O=S(=O)(NCc1ccc2c(c1)OCO2)c1ccc(-n2cnnn2)cc1	2.1	-0.94
34	O=C(NC1CCCC1)c1cc(-c2ccccn2)nc2ccccc12	.	-1.5
35	COc1ccc(CCNC(C#N)c2cc(Br)ccc2O)cc1OC (stereo not drawn)	.	0.1
36	COc1ccc(NC(=O)c2cccs2)cc1OC1CCCC1	.	-1.1

3 entries out of the list, sorted by molar mass, high to low:
No.	structure	HIV TAR-Tat	CDC25B CDK2 inh
23	COc1ccc(-c2cc(OC(=O)c3ccc(Cl)cc3)c3c(C)oc(C)c3c(=O)c2)cc1OC	-3.5	-1.2
26	COc1cc(/C=C/C(=O)/C=C(O)/C=C/c2ccc(O)c(OC)c2)ccc1O	1.4	.
33	O=S(=O)(NCc1ccc2c(c1)OCO2)c1ccc(-n2cnnn2)cc1	2.1	-0.94

Some of the entries above in another layout:
32	CCCN1CCN(C(=O)C(=O)Nc2ccc3nc4n(c(=O)c3c2)CCCCC4)CC1
  HIV TAR-Tat: .; CDC25B CDK2 inh: -2.4
33	O=S(=O)(NCc1ccc2c(c1)OCO2)c1ccc(-n2cnnn2)cc1
  HIV TAR-Tat: 2.1; CDC25B CDK2 inh: -0.94
34	O=C(NC1CCCC1)c1cc(-c2ccccn2)nc2ccccc12
  HIV TAR-Tat: .; CDC25B CDK2 inh: -1.5
35	COc1ccc(CCNC(C#N)c2cc(Br)ccc2O)cc1OC (stereo not drawn)
  HIV TAR-Tat: .; CDC25B CDK2 inh: 0.1

(more compounds)
No.	structure	HIV TAR-Tat	CDC25B CDK2 inh
37	COCCNc1c(-c2cc(C)c(C)cc2C)c(=O)c1=O	-0.64	.
38	COc1ccc(NC(=O)CSc2nc3ncccc3[nH]2)cc1OC	1.4	.
39	CN(C(=O)CCCN1C(=O)c2ccccc2C1=O)C1CC(C)(C)N(C)C(C)(C)C1	.	-0.39
40	OCc1cnc(SCc2c(F)cccc2Cl)n1Cc1ccccc1	0.75	.
41	CC(C(=O)OCC(=O)n1c2c(c3ccccc31)CCCC2)N1C(=O)c2ccccc2C1=O (stereo not drawn)	.	-1.6
42	CCOC(=O)c1c(NC(=O)c2ccc([N+](=O)[O-])o2)nc(SC)n1Cc1cccs1	.	0.27
43	O=C(Nc1cccc(Cl)c1)C1=Cc2sc3c(c2CS1)CCCC3	-3.7	.
44	COCCCn1c(CCC(=O)O)ccc1-c1ccc(F)cc1	-1.9	-1.4
45	COc1ccc(Nc2c(-c3ccc(N4CCOCC4)cc3)nc3ncccn23)cc1	-0.66	-2.3
46	CC1=Nn2c(nnc2-c2ccoc2C)SC1	1.2	.
47	O=C(c1cnn(-c2ccccc2)c1-n1cccc1)N1CCN(c2ccccc2)CC1	1.1	-1.3
48	CCC(=O)Nc1ccccc1SCc1cc(=O)n2oc(C)cc2n1	-0.25	.
49	c1ccc(Cc2nn3c(C4COc5ccccc5O4)nnc3s2)cc1 (stereo not drawn)	0.98	0.77
50	CCCc1cc(=O)n2nc(N3CCC(C(=O)NCCN(CC)CC)CC3)sc2n1	3.3	-1.1
51	Cc1ccc(Nc2nc3ccccc3n3nnnc23)c(C)c1	-2.3	-1.6
52	CCC(=O)Nc1nnc(-c2nc3ccccc3n(C)c2=O)o1	2.6	.
53	CCCSc1nc2c(c(=O)[nH]1)C(c1cc(F)ccc1F)CC(=O)N2 (stereo not drawn)	1.5	-2.1
54	CCN(C(=O)c1cc(S(=O)(=O)N2CCc3ccccc32)cn1C)c1ccccc1	2.1	.
55	CCS(=O)(=O)c1nc(S(=O)(=O)c2ccc(C)cc2)c(NCCc2c[nH]c3ccccc23)s1	-0.09	-2.1
56	COc1ccc(N2C(=O)N(Cc3ccncc3)c3ccccc3S2(=O)=O)cc1OC	2.2	.
57	CCOC(=O)N/N=C(\C)c1oc(C)cc1C	.	-1.1
58	O=S(=O)(c1ccc(F)cc1)N1CCN(Cc2c(F)cccc2F)CC1	.	-1.4
59	CCOC(=O)C(=O)Nc1nnc(COC)s1	-0.65	-1.5
60	CCn1c2ccccc2c2cc(C3C(C#N)=C(N)OC4=C3C(=O)CC(C)(C)C4)ccc21 (stereo not drawn)	.	-0.16
61	CCc1cccc(CC)c1NC1=NS(=O)(=O)c2ccccc21	.	-2.4
62	COC(=O)C1=C(C)Nc2nc3ccccc3n2C1c1cccc(C)c1 (stereo not drawn)	1.1	-2.2
63	Cc1nn(-c2ccccc2)c(-n2cccc2)c1C(=O)Nc1ccccc1Br	2.5	-0.42
64	O=c1[nH]c2cc(Cl)ccc2c(O)c1-c1ccc(Oc2ccccc2)cc1	.	-3
65	O=c1c2cccc3cccc(sc4cccc5cccc1c54)c32	.	-1.2
66	COc1ccc(-c2cc(C(F)(F)F)nc(SCCC(=O)N3CCN4CCCC4C3)n2)cc1 (stereo not drawn)	.	0.28
67	Cc1nc(-c2ccc(S(=O)(=O)NCc3ccc(Cl)cc3)cc2)co1	1.3	.
68	CCc1ccc(N2C(=O)C3N=NN(Cc4ccc(F)cc4)C3C2=O)cc1 (stereo not drawn)	0.68	0.74
69	CCC(C)CCCCC(=O)NC(CCN)C(=O)NC(C(=O)NC(CCN)C(=O)NC1CCNC(=O)C(C(C)O)NC(=O)C(CCN)NC(=O)C(CCN)NC(=O)C(CC(C)C)NC(=O)C(Cc2ccccc2)NC(=O)C(CCN)NC1=O)C(C)O (stereo not drawn)	2.1	.
70	COc1ccc(-n2c(=O)c3c4c(sc3n(CC(=O)NCC3CCCO3)c2=O)CCCC4)c(OC)c1 (stereo not drawn)	.	-0.38
71	O=C(O)c1cccc(CSc2cccs2)c1	.	-0.9
72	O=C(O)c1ccc(Nc2ccnc3cc(Cl)ccc23)cc1	-0.32	-1.1
73	Cc1cc2n(n1)CCC(=O)N2CCCC(=O)NCCC1=CCCCC1	1.2	.
74	Cc1cc2nc(CSc3nnc(NC(=O)c4ccco4)s3)cc(=O)n2o1	0.39	.
75	Cc1ccc(S(=O)(=O)NC(=O)Nc2nc(-c3ccc(C)c(Cl)c3)c(C)s2)cc1	.	-0.14
76	COc1ccc(Nc2c(-c3ccccn3)nc3ccc(Br)cn23)cc1	.	0.7
77	CCN(CC)C(=O)C1=CC(c2cc(OC)ccc2OC)=NS(=O)(=O)N1C	1.1	-1.8
78	C1=CC(=C(c2ccccc2)c2ccccc2)C=C1	.	-1.2
79	CCOC(=O)N1CCN(C(=O)c2cccn3c(=O)c4c5c(sc4nc23)CCCC5)CC1	0.4	.
80	Cc1cc(C)c2c(n1)sc1c(=O)n(-c3ccc(F)cc3)nnc12	1.6	-0.25
81	CCc1ccc(-n2nc3ccc(N)cc3n2)cc1	-0.28	-0.38
82	CSc1ncccc1C(=O)NC1CCCc2ccccc21 (stereo not drawn)	0.68	.
83	Cc1cccn2c(=O)c(C(=O)O)cnc12	2.3	1.4
84	O=C(Cc1nnc(NC(=O)Nc2ccc(F)cc2)s1)Nc1ccccc1	.	-0.44
85	CC(C)CNc1cc(N2CCN(C(=O)c3ccco3)CC2)c2noc3c2c1C(=O)c1ccccc1-3	-5.2	-2.4
86	CCCN1C(=O)N(C)C2NC(=O)NC21 (stereo not drawn)	-0.11	0.05
87	NC(=O)CSc1nc2ccc(NC(=O)COc3ccc(F)cc3)cc2s1	0.33	0.71
88	COc1ccc(Br)cc1CN1CCN(Cc2ccc3c(c2)OCO3)CC1	-0.02	-1.8
89	O=C1Nc2ccc(S(=O)(=O)NCc3ccc4c(c3)OCO4)cc2C1C1CCCC1 (stereo not drawn)	-1.8	.
90	O=C(CCc1nnc2ccc(N3CCOCC3)nn12)N1CCCCC1	0.3	.
91	O=C(Nc1ccc(Cl)cc1)N(CCCN1CCOCC1)Cc1cccs1	1.3	.
92	CCOc1ccccc1C1Nc2ccccc2-c2cc(C)nn21 (stereo not drawn)	3.2	-2.1
93	CN(C(=O)c1cc2c(-c3ccccc3F)nn(C)c2s1)C1CCCCC1	.	-0.08
94	CC1=CC(C)(C)N(C(=O)CSc2nc3ccccc3[nH]2)c2ccccc21	0.22	-0.98
95	O=C(Oc1ccc(Br)cc1)c1cccnc1	2.2	-0.43
96	COc1ccc(CNCc2ccc(Br)cc2)c(OC)c1	2.9	-2.1

Next structures.
No.	structure	HIV TAR-Tat	CDC25B CDK2 inh
97	N#CC1=C(N)OC2=C(C(=O)CCC2)C1c1c(F)c(F)c(F)c(F)c1F (stereo not drawn)	.	-0.88
98	Cc1ncc(-c2ccc(S(=O)(=O)Nc3ccc(F)cc3)cc2)o1	0.37	.
99	COc1ccc(Nc2nc(-c3nnc(-c4ccc(F)cc4)o3)nc3ccccc23)c(OC)c1	0.97	.
100	CCOC(=O)c1sc(NC(=O)c2cccs2)c(C(=O)OCC)c1C	1.2	-1.4
101	COC(=O)CC1Oc2ccc(Cl)cc2-n2cc(-c3ccc(C)cc3)nc21 (stereo not drawn)	2.6	-2.5
102	Cc1c(NC2=CC(=O)CC(C)(C)C2)c(=O)n(-c2ccccc2)n1C	-0.55	-1.4
103	O=C(CSc1ccc(-c2cccs2)nn1)N1CCCC1	0.29	.
104	CCCc1nnc(NC(=O)Cc2csc(C)n2)s1	1.3	-1.7
105	O=S(=O)(NCCc1nnc2ccc(SCc3ccccc3F)nn12)c1ccccc1	-0.99	.
106	CC(=O)N1CCC2(CC1)OC(=O)C(C)=C2C(=O)Nc1ccc(Br)cc1F	0.94	.
107	Cc1nc(-c2ccc(S(=O)(=O)N3CCC(N4CCCCC4)CC3)cc2)co1	0.78	.
108	O=C(CN1C(=O)CCc2cc(Br)ccc21)N1CCC(C2CCCCC2)CC1	1.7	.
109	O=C(O)Cc1ccc(-n2cnnn2)cc1	1.8	-0.77
110	Cc1ccc(S(=O)(=O)c2nc(S(C)(=O)=O)sc2N2CCCCC2)cc1	0.18	0.23
111	CC1CCC(Nc2c(-c3ccc4c(c3)CCCC4)c(=O)c2=O)CC1 (stereo not drawn)	-0.97	.
112	CCc1nc2c(C)csc2c(=O)o1	.	-2.9
113	Nc1c(-c2ccc(F)cc2)[nH]c2ccccc12	0.21	.
114	CCOC(=O)c1cn[nH]c1S(=O)(=O)N1CCN(c2ccccn2)CC1	0.54	.
115	O=C(CCCn1c(=O)c2cccn2c2ccccc21)N1CCN(c2ccccc2)CC1	2.3	.
116	CSc1ccc(-c2nc(C(N)=O)c3[nH]c(=O)n(-c4ccc(F)cc4)c3n2)cc1	1.6	.
117	O=C(O)CC1Oc2ccccc2NC1=O (stereo not drawn)	2.8	-0.89

Screening results as filed in PubChem.
